Source: PubChem BioAssay
TRPML1 agonist = activates the human TRPML1 channel. Q9GZU1. TRPML1-expressing cells, Ca2+ dye fluorescence, FDSS; host cell line not named in the record; reference of the full effect not given here. activation, % (no concentration beside the values). 410,000 tested, 0.12% active. AID 624414; in the data active = activation above about 50%; inconclusive = about 30% to 50%; inactive = below about 30%; note: 0% is about no effect; the text of the record puts the active cut at 80%
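Calcium fluorescence on an FDSS kinetic reader gave the read-out. Tet-induced TRPML1-DL cells were plated overnight, dye-loaded (Ca8 with quencher, 45-90 min, room temperature, dark), then read 110 s after compound addition, and again 110 s after 4uM final 54-4 (EC80).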
CtBP-E1A blk = blocks the CtBP interaction with E1A; AlphaScreen GST-E1A/His-CtBP binding, 1536-well; stronger effect = lower value; control for the full effect not named in the record; activity change, % (concentration not given with the values); 340,000 tested, 0.49% active; AID 651724; in the data active means activity change below about -65%; inconclusive means about -30% to -65%; inactive means above about -30%; note: % is set by controls: 0 for no effect and ±100 for the full control effect
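GST-E1A and His-tagged CtBP (125 nM each as 5X stock) were preincubated with pin-transferred compound for 2 h at 37 °C in the dark, then glutathione donor and nickel acceptor beads were added for 1 h before AlphaScreen reading.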
D2 PAM = human D2 receptor positive allosteric modulation. P14416. DiscoveRx D2 beta-arrestin cells, luminescence, 90 min; 100% = 57 uM dopamine signal. potentiation, % (no concentration beside the values). 360,000 tested, 0.23% active. AID 624464; active = potentiation of 50% or more; inconclusive = 30% to 50%; inactive = 30% or less;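 note: compound concentration not given in the record; tested on top of an EC20 dose of dopamine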
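PathHunter D2 cells, attached overnight at 37 deg C, received compound in DMSO plus dopamine at EC20 (50 nM final) for 90 min at 37 deg C. Beta-arrestin recruitment was read as luminescence after 1 h with detection reagent at ambient temperature.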
TRPML1 inh = human mucolipin-1 channel inhibition; Q9GZU1; TRPML1-inducible cells, Ca2+ dye fluorescence, FDSS; stronger effect = lower value; inhibition of EC80 agonist-evoked calcium signal; activity change, negative = inhibition, % (no concentration beside the values); 390,000 tested, 0.02% active; AID 624415; in the data active means activity change below about -50%; inconclusive means about -30% to -50%; inactive means above about -30%;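 note: stimulus is agonist 54-4 at its EC80 concentration; % is set by controls: 0 for no effect and ±100 for the full control effect; compound concentration not given in the record; the text of the record puts the active cut at -80%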
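Calcium fluorescence in TRPML1-DL cells induced overnight with Tet: a 110 s read after compound pin addition, then a 110 s antagonist read after challenge with 54-4 at 4 uM final (EC80).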
TRPV1 potentiator = potentiators of human vanilloid receptor 1 (TRPV1); 320,000 tested, 0.02% active; Q8NER1; potentiation, % at 8.33 µM; AID 540277; TRPV1-expressing cells, Fluo-8 calcium influx, capsaicin EC20 potentiation; host cell line not named in the record; control for the full effect not named in the record; active means potentiation above 80%; inconclusive means 30% to 80%; inactive means below 30%; note: 0% is about no effect
Target sequence (Q8NER1 whole entry, looked up): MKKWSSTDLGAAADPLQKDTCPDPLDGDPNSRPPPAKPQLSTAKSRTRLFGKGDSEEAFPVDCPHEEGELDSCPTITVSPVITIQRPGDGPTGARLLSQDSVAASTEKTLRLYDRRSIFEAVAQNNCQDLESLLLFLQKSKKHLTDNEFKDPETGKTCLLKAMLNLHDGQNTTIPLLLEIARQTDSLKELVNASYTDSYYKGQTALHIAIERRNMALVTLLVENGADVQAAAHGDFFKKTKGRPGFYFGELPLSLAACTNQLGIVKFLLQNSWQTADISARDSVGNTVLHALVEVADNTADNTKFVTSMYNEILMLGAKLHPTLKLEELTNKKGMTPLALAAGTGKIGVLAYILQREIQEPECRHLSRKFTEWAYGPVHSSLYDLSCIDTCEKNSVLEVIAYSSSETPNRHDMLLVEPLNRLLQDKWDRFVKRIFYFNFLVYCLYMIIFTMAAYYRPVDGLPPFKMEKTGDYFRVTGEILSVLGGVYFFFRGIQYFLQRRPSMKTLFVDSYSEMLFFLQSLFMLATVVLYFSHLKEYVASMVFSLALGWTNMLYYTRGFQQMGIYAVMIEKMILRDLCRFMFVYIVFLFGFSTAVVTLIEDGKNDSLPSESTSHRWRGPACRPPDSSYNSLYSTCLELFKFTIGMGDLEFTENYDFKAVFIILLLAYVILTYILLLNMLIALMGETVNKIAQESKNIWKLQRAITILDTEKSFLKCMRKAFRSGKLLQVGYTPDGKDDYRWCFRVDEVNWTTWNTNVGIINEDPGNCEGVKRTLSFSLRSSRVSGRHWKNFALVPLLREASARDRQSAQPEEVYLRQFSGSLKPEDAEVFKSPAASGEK
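TRPV1-expressing cells were cultured overnight at 35.5C and loaded with Fluo-8 calcium dye for 40 to 90 min at room temperature. After a 10 s baseline, compound was added and calcium influx was read kinetically for 3 min (ex 480/em 520 nm).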
Six1-Eya2 blk = Six1/Eya2 interaction inhibition. 360,000 tested, 0.56% active. activity change, % (concentration not given with the values). AlphaScreen GST-Six1/His-Eya2 binding, biochemical; stronger effect = lower value; control for the full effect not named in the record. Q15475+O00167. AID 651725; in the data active = activity change below about -65%; inconclusive = about -30% to -65%; inactive = above about -30%; note: % is set by controls: 0 for no effect and ±100 for the full control effect
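Compounds are tested against tagged Six1 and Eya2 proteins bridged by glutathione donor and nickel acceptor beads; after a one-hour incubation at 37 °C without light, AlphaScreen emission is recorded.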
Numbers without * were called inactive; ? = inconclusive; . = not tested or not shown.

SMILES	TRPML1 agonist	CtBP-E1A blk	D2 PAM	TRPML1 inh	TRPV1 potentiator	Six1-Eya2 blk
COc1ccc(S(=O)(=O)Nc2cccc(C)n2)c2ccccc12	-0.6	-9.3	-7.9	-4.7	4.0	4.1
CSCCC(NC(=O)c1ccccc1)C(=O)NCCc1ccccc1 (stereo unspecified)	2.1	6.8	-5.5	-18.4	5.3	6.7
O=c1[nH]cnc2c1sc(=S)n2-c1ccccc1	-0.1	4.3	-7.6	-6.2	-1.3	-0.4
CCOC(=O)c1c(C)[nH]c(C)c1S(=O)(=O)Nc1ccc(CN2CCCCC2)cc1	-0.6	-11.2	-28.1	5.3	-4.2	-6.8
CCc1cccc(NC(=O)CSCc2nc3sc(C)c(C)c3c(=O)[nH]2)c1	-0.7	-2.0	-2.1	-20.6	-7.2	1.5
CC(=O)c1cccc(NS(=O)(=O)c2cc(OCC(N)=O)c(C)cc2Cl)c1	0.0	11.8	-0.7	8.2	8.2	-2.0
CC(OC(=O)CC1Sc2ccccc2NC1=O)C(=O)NC1CCCC1 (stereo unspecified)	-0.7	24.1	-3.3	-8.6	-4.4	6.1
Cc1ccc2[nH]c(=O)c(C3C(C#N)=C(N)Oc4c3ccc3cccnc43)cc2c1 (stereo unspecified)	-0.1	-92.3*	-22.3	-12.5	3.4	?
COCCOC(=O)C1=C(C)NC(=O)NC1c1cc2c(cc1Br)OCO2 (stereo unspecified)	1.1	7.1	5.0	1.5	15.5	6.1
Cc1ccc(CN2CCN(C3CCCC3)C(CCO)C2)s1 (stereo unspecified)	-0.2	7.7	-31.7	40.1	0.1	2.5
CCOC(=O)C1CCN(C(=S)Nc2cc(OC)c(OC)cc2C(=O)OC)CC1	0.2	-13.2	-8.7	-3.8	23.5	-17.6
COC(=O)c1c(-c2ccccc2)csc1NC1=NS(=O)(=O)c2ccccc21	0.8	1.6	-6.5	1.1	14.5	3.0
Nc1nc(=S)c2[nH]c(=S)[nH]c2[nH]1	-0.6	-1.0	-8.9	7.1	.	-8.7
O=C1NC(Cc2ccccc2)C(=O)Nc2ccc(Br)cc21 (stereo unspecified)	.	.	21.3	.	9.9	3.1
CC(C)C[C@H](NC(=O)CC[C@H]1O[C@@H](n2ccc(=O)[nH]c2=O)[C@H](O)[C@@H]1O)C(=O)O	-0.1	1.3	-5.0	-6.4	.	1.1
COc1cccc(-c2nnn(CC(=O)Nc3ccc(C)cc3C)n2)c1OC	-0.6	6.3	-4.4	8.8	-12.2	3.2
CCCn1cnc2c(SCCc3ccccc3)nc(N)nc21	0.0	-1.6	-17.1	-8.7	.	-9.9
CN(CC(=O)NCc1ccco1)C(=O)C1CC(=O)N(c2ccc3c(c2)OCCO3)C1 (stereo unspecified)	0.4	.	-5.5	8.9	-6.7	-0.9
O=C(Nc1cccc(C(F)(F)F)c1)C(SCCO)c1ccccc1 (stereo unspecified)	1.0	3.5	-9.2	19.3	-4.2	-3.1
Cc1cccn2c(=O)c3cc(C(=O)NC4CCCCC4C)n(C)c3nc12 (stereo unspecified)	-0.8	12.7	-0.8	4.3	-15.4	5.3
CCCn1c(N)[n+](CC(=O)c2ccco2)c2ccccc21	0.4	8.4	11.4	-12.2	5.2	3.5
CN(C)C(CNC(=O)CCc1c[nH]c2ccccc12)c1ccccc1 (stereo unspecified)	0.6	4.3	-11.0	-9.5	24.4	-24.0
COc1ccc(Nc2nc(C(=O)N(CCO)Cc3ccccc3)cs2)cc1	0.0	.	-20.9	6.8	9.7	3.3
COC(=O)CCC(=O)OC1(C)C(=O)C2=CN(c3ccccc3)C(c3ccc(OC)cc3)=CC2=C(Br)C1=O (stereo unspecified)	0.6	.	13.3	29.2	.	-16.8
O=C(Nc1nccs1)C(Br)C(Br)c1ccccc1 (stereo unspecified)	2.4	3.3	-5.1	-10.0	5.5	5.3

10 structures out of the list, arranged by molar mass, low to high.
SMILES	TRPML1 agonist	CtBP-E1A blk	D2 PAM	TRPML1 inh	TRPV1 potentiator	Six1-Eya2 blk
Nc1nc(=S)c2[nH]c(=S)[nH]c2[nH]1	-0.6	-1.0	-8.9	7.1	.	-8.7
O=C1NC(Cc2ccccc2)C(=O)Nc2ccc(Br)cc21 (stereo unspecified)	.	.	21.3	.	9.9	3.1
O=C(Nc1cccc(C(F)(F)F)c1)C(SCCO)c1ccccc1 (stereo unspecified)	1.0	3.5	-9.2	19.3	-4.2	-3.1
CSCCC(NC(=O)c1ccccc1)C(=O)NCCc1ccccc1 (stereo unspecified)	2.1	6.8	-5.5	-18.4	5.3	6.7
CC(OC(=O)CC1Sc2ccccc2NC1=O)C(=O)NC1CCCC1 (stereo unspecified)	-0.7	24.1	-3.3	-8.6	-4.4	6.1
COc1cccc(-c2nnn(CC(=O)Nc3ccc(C)cc3C)n2)c1OC	-0.6	6.3	-4.4	8.8	-12.2	3.2
COc1ccc(Nc2nc(C(=O)N(CCO)Cc3ccccc3)cs2)cc1	0.0	.	-20.9	6.8	9.7	3.3
CCc1cccc(NC(=O)CSCc2nc3sc(C)c(C)c3c(=O)[nH]2)c1	-0.7	-2.0	-2.1	-20.6	-7.2	1.5
CC(=O)c1cccc(NS(=O)(=O)c2cc(OCC(N)=O)c(C)cc2Cl)c1	0.0	11.8	-0.7	8.2	8.2	-2.0
COCCOC(=O)C1=C(C)NC(=O)NC1c1cc2c(cc1Br)OCO2 (stereo unspecified)	1.1	7.1	5.0	1.5	15.5	6.1

Following part:
SMILES	TRPML1 agonist	CtBP-E1A blk	D2 PAM	TRPML1 inh	TRPV1 potentiator	Six1-Eya2 blk
CCN(CC)S(=O)(=O)c1cccc(C(=O)N[C@H](C(=O)O)C(C)C)c1	0.5	5.6	-23.6	7.9	-1.4	3.1
COc1ccc(CN2CCOCCOCCN(Cc3ccc(OC)cc3)CCOCCOCC2)cc1	-0.2	2.8	-6.9	4.1	-6.2	1.1
C#CCNC(=O)C1=C[C@H](c2ccccc2)C[C@H](OCCCCO)O1	-0.8	6.2	-5.8	0.3	-6.9	-1.1
[O-][n+]1ccc(C2CC2)cc1	-0.9	4.6	-12.2	-1.5	2.1	3.8
COc1cccc(NC(=O)CN(C)C(=O)c2c(C)noc2C)c1	0.2	22.9	-2.3	9.2	-1.6	2.4
CCC(Sc1nnnn1-c1ccccc1)C(=O)NC(C)c1ccccc1 (stereo unspecified)	4.0	13.8	1.1	-21.3	-3.2	8.7
COc1ccccc1N(CN1C(=O)c2ccccc2C1=O)C(=O)c1cccc(C)c1	1.5	0.8	15.4	-9.0	-7.2	7.1
CCN=c1sc(C(=O)OC)cc(=O)n1CC	7.1	1.3	2.5	12.4	1.3	6.1
COc1ccc(/C=C2\CCCC3C2=NN(C(=O)c2ccco2)C3c2ccc(OC)c(OC)c2)cc1OC (stereo unspecified)	3.1	-0.2	10.4	7.6	-24.1	?
O=C(CCN1CCCCCC1)Nc1ccc2c(c1)OCCO2	0.1	2.8	-8.0	-12.6	2.5	0.0
CC(C)=CCC/C(C)=C/CNC(=O)C[C@H]1C[C@H](C(=O)N2CCOCC2)[C@@]2(C)c3[nH]c4cc(-c5ccco5)ccc4c3CCN2C1=O	-0.2	-20.7	.	-18.2	.	-21.6
CC(C)Cc1nnc(NC(=O)c2ccc3c(=O)n4c(nc3c2)CCC4)s1	1.8	?	0.2	-9.9	-5.5	-28.9
O=C(O)c1cccc(N2C(=O)C3C4C=CC(C4=C(c4ccccc4)c4ccccc4)C3C2=O)c1 (stereo unspecified)	-0.4	.	0.7	11.2	-0.2	3.0
CC1=CC(C)(C)N(C(=O)CN2C(=O)CCC2=O)c2ccccc21	-0.3	7.6	-6.1	-4.0	-9.4	2.4
CCC1CCCCN1C(=O)COC(=O)c1cc2ccccc2cc1O (stereo unspecified)	1.4	1.7	-23.4	-12.1	-12.2	-5.6
CCN1CCCC1CNC(=O)Cn1cc2c(n1)CCC(C)C2 (stereo unspecified)	0.7	-4.5	-6.2	7.7	-2.6	5.0
Cc1[nH]nc(SCC(=O)NCC(C)C)c1[N+](=O)[O-]	-0.1	.	-12.1	17.5	-4.8	3.6
Cn1c(=O)c2c(-c3ccccc3)n(-c3ccc(N)cc3)cc2n(C)c1=O	-0.3	-14.8	18.9	.	.	-22.7
Cc1cnc(C(=O)OCC(=O)NCc2cccc(Cl)c2)cn1	0.0	.	-2.6	47.6	14.4	4.8
COc1ccc(-n2nc(C(=O)NCC(=O)O)c3ccccc3c2=O)cc1	-0.1	.	0.7	-4.9	4.5	3.2
CCOC(=O)c1c(C)[nH]c(C(=O)OCc2ccccc2)c1C	5.9	5.5	-5.5	23.4	-4.2	-4.4
COc1ccc(-n2nc(C(=O)NCC(=O)NC(C)C)c3ccccc3c2=O)cc1	0.8	6.4	1.9	-6.3	14.2	-0.4
COc1ccc(NC(=O)C2(C)Cc3c(-c4ccccc4)ccnc3O2)cc1OC (stereo unspecified)	-1.0	-8.3	-46.6	.	.	-6.9
C/C(=N\Nc1ccc(C(=O)O)cc1)c1ccc(Br)cc1	-0.8	.	-15.5	-10.2	2.6	-18.2
O=C(Nc1ccc2c(c1)OCCO2)NC12CC3CC(CC(C3)C1)C2	-0.1	-6.4	-1.7	27.6	-4.9	-4.8

Next part:
SMILES	TRPML1 agonist	CtBP-E1A blk	D2 PAM	TRPML1 inh	TRPV1 potentiator	Six1-Eya2 blk
COc1ccc(-c2nc(N)nc(C)c2-c2ccc(Cl)cc2)c(O)c1	.	0.0	5.1	.	-16.0	11.4
O=C(NCc1ccccc1)C(=O)NCC1OCCN1S(=O)(=O)c1ccc(Br)cc1 (stereo unspecified)	0.7	-9.7	-7.0	12.6	-0.3	-16.9
O=C(Oc1ccc(-c2nnco2)cc1)N1CCCCC1	-0.4	-6.7	-9.2	-2.8	-1.2	0.0
Cc1ccc(S(=O)(=O)NC(=O)N(C)C2CCCCC2)cc1	1.0	-16.8	-6.2	14.1	11.4	12.6
CC(N=C(NS(=O)(=O)c1ccc(Cl)cc1)c1ccccc1)C(=O)O (stereo unspecified)	-0.3	3.4	-10.6	4.0	1.5	-3.4
CCOc1cc(CN2CCCC(CNC(=O)c3ccc(F)cc3)C2)ccc1OC (stereo unspecified)	0.2	.	-27.6	11.2	?	6.4
CCN1CCN(C(c2cc(OC)ccc2OC)c2nnnn2Cc2ccccc2)CC1 (stereo unspecified)	-0.7	-3.1	-17.6	15.1	-4.0	-18.7
COc1cc(/C=N/NC(=O)c2cc(C)n(-c3ccc(F)cc3)c2C)cc(OC)c1O	-0.4	-1.9	-3.1	5.1	3.5	-9.2
COc1ccc(C(=O)N(CCc2ccccc2)Cc2ccccc2)cc1S(=O)(=O)N1CCOCC1	-0.7	-4.2	-14.9	-7.4	-4.0	-1.2
CC1CC(=O)N(CC(=O)Nc2ccc3c(c2)OCO3)c2ccccc2S1 (stereo unspecified)	1.0	4.3	-19.1	17.5	-17.4	-0.1
